Screens from PubChem.
VACV Venus inh – inhibitors of vaccinia virus (Venus reporter); AID 720580; hit rate 0.46% among 330,000; Vaccinia virus Venus reporter expression, fluorescence; Potency, µM (highest dose often 36.5 µM), for the others: at the top dose activity change, negative = inhibition, usual class: inhibitors; active means well fitted inhibition curve with a large enough effect; inconclusive means small, poorly fitted or top-dose-only effect; inactive means no such curve, though single readings can be large or run the other way; tested in A549 cells; note: nearly all actives have a fitted effect of over 30% in size; inactives centre near -10
VACV mCherry inh – inhibitors of vaccinia virus infection (mCherry reporter signal); Vaccinia virus mCherry reporter infection, fluorescence; about a quarter of the inactives have no number; Potency, µM (top dose mostly 36.5 µM), inactives show at the top dose activity change, negative = inhibition, hits mostly inhibitors; hit rate 0.63% among 310,000; AID 720579; active = well fitted inhibition curve with a large enough effect; inconclusive = small, poorly fitted or top-dose-only effect; inactive = no such curve, though single readings can be large or run the other way; tested in A549 cells; note: nearly all actives have a fitted effect of over 35% in size; inactives centre near -10
Numbers without * were called inactive; i = inactive; ? = inconclusive; · = not tested or not shown. % is set by controls: 0 for no effect and ±100 for the full control effect; potency is the fitted concentration of half-maximal effect.

| molecule | VACV Venus inh | VACV mCherry inh |
| --- | --- | --- |
| COc1ccc(C2=NCCn3nc4cc([N+](=O)[O-])ccc4c32)cc1 | 6% | 0% |
| CC1CC(C)CN(C(=O)COC(=O)CCCN2C(=O)c3cccc4cccc(c34)C2=O)C1 (centres undefined) | -11% | -8% |
| CCOc1ccc(C(=O)NC(=S)Nc2ccccc2N2CCOCC2)cc1Br | -18% | -18% |
| CCCS(=O)(=O)C(=C(Nc1ccccc1)Nc1ccccc1)S(=O)(=O)CCC | -11% | -1% |
| COc1ccc(OC)c(NC(=O)CSc2nnc(CNC(=O)c3ccco3)o2)c1 | -14% | i |
| CN(C)S(=O)(=O)c1cccc(C(=O)c2nccn2C)c1 | 13% | -15% |
| CCC(C)(C)NC(=O)Cc1ccc(Cl)cc1 | -5% | 2% |
| COc1cc(Cl)c(C)cc1NC(=O)c1ccc2c(Cl)c3c(nc2c1)CCC3 | 2% | -10% |
| Cc1cc(C)c(C)c(S(=O)(=O)N2CCC(C(=O)Nc3ccccc3N3CCOCC3)CC2)c1C | -16% | -12% |
| O=C(Nc1ncc(Cc2cccc(Cl)c2)s1)C1=NCCN1 | -13% | -1% |
| N=c1n(CC(=O)c2cccc([N+](=O)[O-])c2)c2ccccc2n1Cc1ccccc1 | -2% | -17% |
| Cc1cccc(N2CCN(C(=O)Cc3ccc(-n4c(=O)[nH]c5ccsc5c4=O)cc3)CC2C)c1 (centres undefined) | -16% | -9% |
| CCCCCCCn1c(=O)c(C(=O)Nc2cnccn2)c(O)c2ccccc21 | -8% | -9% |
| O=C(NCCn1cc(SCc2ccc(C(F)(F)F)cc2)c2ccccc21)c1ccccc1F | -13% | -5% |
| CCNS(=O)(=O)c1ccc(CCC(=O)Nc2cc(Cl)ccc2Oc2ccccc2)cc1 | ? | ? |

Entries of single compounds, quoted from the list.
`O=C(NCCn1cc(SCc2ccc(C(F)(F)F)cc2)c2ccccc21)c1ccccc1F` across the screens: VACV Venus inh: -13%; VACV mCherry inh: -5%
`O=C(Nc1ncc(Cc2cccc(Cl)c2)s1)C1=NCCN1` across the screens: VACV Venus inh: -13%; VACV mCherry inh: -1%

(further entries)
| molecule | VACV Venus inh | VACV mCherry inh |
| --- | --- | --- |
| O=C(NCc1ccc2c(c1)OCO2)c1ccc2c(c1)N(Cc1ccccc1)C(=O)c1ccccc1S2=O (centres undefined) | 0% | -13% |
| CN1C(=O)C(=Cc2cn(CC(=O)N3CCCCC3)c3ccccc23)C(=O)N(C)C1=O | 0% | -10% |
| O=C(NCC1CCCN(C(=O)c2cscn2)C1)c1ccccc1Cl (centres undefined) | -2% | i |
| Cc1cccc(NC(=O)COC(=O)CC2CCCC2)c1C | -8% | -13% |
| COc1ccc(CNC(=O)CN(C(=O)c2cc3sccc3n2C)C2CCCC2)cc1 | -10% | -1% |
| CCCCNc1c(-c2ccc(OC)c(Sc3ccc(OC)cc3)c2)nc2ccc(Cl)cn12 | -22% | -16% |
| O=c1[nH]c2ccc(NCc3ccccc3F)cc2[nH]1 | -10% | -3% |
| O=C(Nc1cccc(O)c1)C1CC(c2cccc(Br)c2)=NO1 (centres undefined) | -4% | -5% |
| CCn1cc(/C=N\NC(=O)C2(C)CC2(Cl)Cl)c(C)n1 (centres undefined) | -5% | -13% |
| CCCOC(=O)CSc1nc(N2CCOCC2)c2c(c1C#N)CC(C)(C)OC2 | -12% | -9% |
| Cc1ccc(CNC(=O)CCS(=O)(=O)c2cc(Br)cc3c2N(C(=O)C2CC2)CC3)o1 | -20% | · |
| CC1=CC(=NNS(=O)(=O)c2ccc([N+](=O)[O-])cc2)CC(C)(C)C1 | -3% | -15% |
| CN1CCN(C(CNC(=O)C(=O)NC2CCCCC2)c2ccc(F)cc2)CC1 (centres undefined) | -11% | i |
| O=C(CSCc1ccccc1)N1CCc2ccccc21 | -9% | -1% |
| Nc1nc(Nc2cccc(F)c2)nc(NCc2ccco2)c1[N+](=O)[O-] | ? | ? |

23 successive compounds already listed:
| molecule | VACV Venus inh | VACV mCherry inh |
| --- | --- | --- |
| COc1cc(Cl)c(C)cc1NC(=O)c1ccc2c(Cl)c3c(nc2c1)CCC3 | 2% | -10% |
| Cc1cc(C)c(C)c(S(=O)(=O)N2CCC(C(=O)Nc3ccccc3N3CCOCC3)CC2)c1C | -16% | -12% |
| O=C(Nc1ncc(Cc2cccc(Cl)c2)s1)C1=NCCN1 | -13% | -1% |
| N=c1n(CC(=O)c2cccc([N+](=O)[O-])c2)c2ccccc2n1Cc1ccccc1 | -2% | -17% |
| Cc1cccc(N2CCN(C(=O)Cc3ccc(-n4c(=O)[nH]c5ccsc5c4=O)cc3)CC2C)c1 (centres undefined) | -16% | -9% |
| CCCCCCCn1c(=O)c(C(=O)Nc2cnccn2)c(O)c2ccccc21 | -8% | -9% |
| O=C(NCCn1cc(SCc2ccc(C(F)(F)F)cc2)c2ccccc21)c1ccccc1F | -13% | -5% |
| CCNS(=O)(=O)c1ccc(CCC(=O)Nc2cc(Cl)ccc2Oc2ccccc2)cc1 | ? | ? |
| O=C(NCc1ccc2c(c1)OCO2)c1ccc2c(c1)N(Cc1ccccc1)C(=O)c1ccccc1S2=O (centres undefined) | 0% | -13% |
| CN1C(=O)C(=Cc2cn(CC(=O)N3CCCCC3)c3ccccc23)C(=O)N(C)C1=O | 0% | -10% |
| O=C(NCC1CCCN(C(=O)c2cscn2)C1)c1ccccc1Cl (centres undefined) | -2% | i |
| Cc1cccc(NC(=O)COC(=O)CC2CCCC2)c1C | -8% | -13% |
| COc1ccc(CNC(=O)CN(C(=O)c2cc3sccc3n2C)C2CCCC2)cc1 | -10% | -1% |
| CCCCNc1c(-c2ccc(OC)c(Sc3ccc(OC)cc3)c2)nc2ccc(Cl)cn12 | -22% | -16% |
| O=c1[nH]c2ccc(NCc3ccccc3F)cc2[nH]1 | -10% | -3% |
| O=C(Nc1cccc(O)c1)C1CC(c2cccc(Br)c2)=NO1 (centres undefined) | -4% | -5% |
| CCn1cc(/C=N\NC(=O)C2(C)CC2(Cl)Cl)c(C)n1 (centres undefined) | -5% | -13% |
| CCCOC(=O)CSc1nc(N2CCOCC2)c2c(c1C#N)CC(C)(C)OC2 | -12% | -9% |
| Cc1ccc(CNC(=O)CCS(=O)(=O)c2cc(Br)cc3c2N(C(=O)C2CC2)CC3)o1 | -20% | · |
| CC1=CC(=NNS(=O)(=O)c2ccc([N+](=O)[O-])cc2)CC(C)(C)C1 | -3% | -15% |
| CN1CCN(C(CNC(=O)C(=O)NC2CCCCC2)c2ccc(F)cc2)CC1 (centres undefined) | -11% | i |
| O=C(CSCc1ccccc1)N1CCc2ccccc21 | -9% | -1% |
| Nc1nc(Nc2cccc(F)c2)nc(NCc2ccco2)c1[N+](=O)[O-] | ? | ? |

Other results follow.
| molecule | VACV Venus inh | VACV mCherry inh |
| --- | --- | --- |
| CCc1nc2ccc(C(=O)Nc3ccc4c(c3)OCC(=O)N4)cn2c1N(C)C(=O)Cc1ccccc1 | 4% | 11% |
| CCOc1ccccc1-n1c(SCC(=O)NC(C)(C)C)nnc1-c1ccoc1C | -19% | -23% |
| COc1ccc(C(=O)CN2CCOCC2)cc1 | -16% | -10% |
| C[C@H]1CN([C@@H](C)CO)C(=O)c2cccc(NS(=O)(=O)c3ccc(F)cc3)c2O[C@H]1CN(C)Cc1ccc(Cl)c(Cl)c1 | ? | -15% |
| CC(=O)Nc1ccc(NC(=O)CSc2nc3c([nH]c4ccccc43)c(=O)n2-c2ccccc2F)cc1 | -27% | -23% |
| Cc1cccc(-n2c(=S)[nH]c3sc4c(c3c2=O)CCc2ccccc2-4)c1 | -11% | -5% |
| COc1ccc(NS(=O)(=O)c2ccc(C(=O)N3CCN(Cc4ccccc4)CC3)cc2)cc1 | -26% | -22% |
| O=C(NNC(=O)c1ccccc1F)c1cccs1 | -12% | -14% |
| Cc1ccc(C(=O)N2CCCC(Nc3cccc(F)c3)C2)cc1N1CCNC1=O (centres undefined) | -20% | -15% |
| Cc1cccc(NC(=O)CNC(=O)[C@H]2O[C@@H](n3ccc(=O)[nH]c3=O)[C@H](O)[C@@H]2O)c1C | 7% | 12% |
| CCOC(=O)C1=CN(Cc2cccc(F)c2)S(=O)(=O)N(C)C1CCc1ccccc1 (centres undefined) | -14% | i |
| CS(=O)(=O)Nc1cccc(NC(=O)c2ccc(-c3ccc(F)c(F)c3)c3ccoc23)c1 | -17% | i |
| CC(C)N1CCN(c2ccc(O)cc2)CC1 | -3% | i |
| Cc1cccc(N2CCN(C(=O)CCCSc3nc4ccccc4[nH]3)CC2)c1C | -22% | -17% |
| O=C(N/C(=C/c1ccco1)C(=O)N1CCCCCC1)c1ccccc1 | -1% | -13% |

Next section
| molecule | VACV Venus inh | VACV mCherry inh |
| --- | --- | --- |
| O=c1oc(-c2cccnc2)nc2ccccc12 | -8% | · |
| CC(=O)C(C(C)=O)C1(O)C(=O)c2ccccc2C1=O | -3% | -3% |
| CCOC(=O)CSc1nc2ccc(NC(=O)c3ccccc3)cc2s1 | -9% | i |
| COCCN(C(=O)CSc1nnc(-c2ccc(Cl)cc2)o1)c1c(N)n(CC(C)C)c(=O)[nH]c1=O | -6% | i |
| CCC/C=N/NC(=O)c1cc(-c2ccccc2)nc2ccccc12 | -17% | -15% |
| C=CCn1c(SCC(=O)NC(=O)NC)nnc1C1CCCCC1 | -19% | i |
| COCCNS(=O)(=O)c1cc(C)c(C)cc1C | -7% | -10% |
| CCCCCCOC(=O)CC1CC(C(C)=O)C1(C)C (centres undefined) | -3% | -13% |
| O=C(NCCCO)c1cc([N+](=O)[O-])cc2c1C=Cc1ccccc1O2 | -15% | -27% |
| CC(=O)Nc1ccc(Nc2nc(-c3sc(NC(C)=O)nc3C)cs2)cc1 | -20% | -24% |
| S=C1NCN(Cc2cccnc2)CN1Cc1ccccc1 | -20% | -7% |
| O=C(CN(c1ccc(F)cc1)S(=O)(=O)c1ccccc1)Nc1ccccc1C(=O)O | -7% | 3% |
| OC(Cc1cccc(Br)c1)c1ncc(-c2ccccc2C(F)(F)F)[nH]1 (centres undefined) | -18% | 8% |
| COc1ccc(NC(=O)CC(c2ccc(F)cc2)c2ccc(OC)cc2)cc1 (centres undefined) | -21% | -4% |
| CNC(=O)COC(=O)/C=C/c1cn(-c2ccccc2)nc1-c1ccc2c(c1)OCCO2 | 4% | i |

Additional entries
| molecule | VACV Venus inh | VACV mCherry inh |
| --- | --- | --- |
| CN(C)c1ccc(CNC(=O)c2cnc3sc(N4CCCCCC4)nn3c2=O)cc1 | -14% | -14% |
| COc1ccc(-c2cc(C(F)(F)F)n3nc(C(=O)O)c(Cl)c3n2)cc1OC | -5% | -7% |
| CC1CC(C)CN(C(=O)COC(=O)COc2ccc(C#N)cc2)C1 (centres undefined) | -8% | i |
| C=CCc1cc(OC)ccc1OCCON1C(=O)CCC1=O | -5% | -14% |
